Screening results: PubChem, several laboratories
RanGTP-Imp inh: disruptors of Ran-importin-beta complex formation – biochemical, FRET, CFP-Ran, YFP-importin-beta, homogeneous, primary screen; actives 1.1% (n = 300,000); inhibition, % (test concentration not listed); cell-free CFP-Ran/YFP-importin-beta FRET ratio;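 active = most replicates above 15%; inconclusive = exactly half above 15%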;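 note: 0% = DMSO wells and 100% = Ran loaded with GDP instead of GTP; wells of about 40 µL received 100 nL stock; the first replicate is given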
Calb FLC: C. albicans growth modulation with fluconazole; C. albicans CaCi-2 (fluconazole-resistant clinical isolate) + fluconazole, Alamar Blue growth, 48 h; growth inhibition, % (concentration not given with the values); actives 0.57% (n = 300,000);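 active = most replicates above 75%; inconclusive = exactly half above 75%; inactive = most below 75%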;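 note: all wells also contain fluconazole at 8 µg/ml as a sub-toxic cotreatment; 0% = median of DMSO wells and 100% = median of geldanamycin control wells; wells of about 8 µL received 7.5 nL stock; the first replicate is given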
Beta cell apopt: beta cell apoptosis inhibition; INS-1E cytokine-induced death, ATP luminescence, 48 h; percent of positive-control rescue, neutral wells zero; protection from apoptosis, % (test concentration not listed); actives 0.8% (n = 300,000);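 active = all replicates at 75% or more, or half of them and the mean; inconclusive = half reach 75% but not the mean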;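 note: 0% = cytokine-treated negative control wells and 100% = positive control rescue; higher means more ATP so stronger rescue from cytokine killing; wells of about 40 µL received 100 nL stock; the first replicate is given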
LANA-H2B inh: blocks KSHV LANA binding to histone H2A/H2B; Q9QR71; actives 0.6% (n = 320,000); cell-free LANA-H2A/H2B peptide, fluorescence polarization; AID 2629; inhibition, % (no concentration beside the values); in the data active = inhibition mostly above about 10%, no sharp cut-off; inactive = mostly below about 6.7%;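 note: stock transfer was 7.5 nL into about 10 µL; 0% = median of vehicle wells and 100% = median of positive control wells; one replicate is shown; the record names a cut of 25% in any replicate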
Target sequence (Q9QR71 whole entry, looked up): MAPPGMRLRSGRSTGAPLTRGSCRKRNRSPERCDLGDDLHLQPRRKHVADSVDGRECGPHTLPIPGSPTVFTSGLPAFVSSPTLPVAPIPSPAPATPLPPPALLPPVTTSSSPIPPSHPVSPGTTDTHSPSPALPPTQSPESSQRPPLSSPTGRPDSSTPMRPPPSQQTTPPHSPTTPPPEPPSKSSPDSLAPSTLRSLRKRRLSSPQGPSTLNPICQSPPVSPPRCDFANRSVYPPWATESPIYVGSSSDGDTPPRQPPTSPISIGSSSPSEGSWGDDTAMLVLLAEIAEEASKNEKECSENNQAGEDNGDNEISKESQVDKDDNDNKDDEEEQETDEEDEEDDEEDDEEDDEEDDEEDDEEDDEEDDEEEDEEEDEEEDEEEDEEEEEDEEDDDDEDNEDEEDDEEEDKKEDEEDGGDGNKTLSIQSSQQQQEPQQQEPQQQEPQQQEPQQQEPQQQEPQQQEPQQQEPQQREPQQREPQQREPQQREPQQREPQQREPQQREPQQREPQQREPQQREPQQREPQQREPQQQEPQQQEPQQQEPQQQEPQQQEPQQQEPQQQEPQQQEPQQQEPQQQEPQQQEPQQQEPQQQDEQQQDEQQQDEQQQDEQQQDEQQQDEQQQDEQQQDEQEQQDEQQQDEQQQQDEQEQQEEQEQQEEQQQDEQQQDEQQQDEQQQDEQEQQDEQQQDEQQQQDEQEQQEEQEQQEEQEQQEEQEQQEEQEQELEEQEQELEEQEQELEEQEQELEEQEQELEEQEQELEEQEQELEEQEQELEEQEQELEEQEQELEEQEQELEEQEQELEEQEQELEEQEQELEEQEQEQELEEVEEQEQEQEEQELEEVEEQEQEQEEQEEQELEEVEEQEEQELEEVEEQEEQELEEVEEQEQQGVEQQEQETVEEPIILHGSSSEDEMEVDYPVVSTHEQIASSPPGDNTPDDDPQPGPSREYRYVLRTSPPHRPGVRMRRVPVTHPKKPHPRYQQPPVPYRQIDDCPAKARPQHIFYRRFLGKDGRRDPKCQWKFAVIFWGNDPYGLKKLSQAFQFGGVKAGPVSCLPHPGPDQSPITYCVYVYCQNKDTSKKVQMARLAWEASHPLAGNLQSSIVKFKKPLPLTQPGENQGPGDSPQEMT
Vif A3G: HIV-1 Vif–A3G interaction blockers – biochemical, TR-FRET, GST-Vif 1-94, biotin-A3G peptide, dose response retest, primary screen (AID 1117319); TR-FRET GST-Vif / biotin-A3G peptide binding; higher % means a stronger effect; test concentration not given here; strong numbers were not always called active; inhibition, %, or IC50 in µM where a hit was titrated; actives 0.57% (n = 260,000);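 active = above the screen mean plus three standard deviations and confirmed in dose response; inconclusive = results disagree or hit not tested in dose response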;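 note: Vif residues 1-94 fused to GST binding biotinylated APOBEC3G peptide 110-148; 0% = full assay without inhibitor and 100% = GST in place of GST-Vif; retest series ran down from 100 µM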
Bfl-1 A1 inh: inhibitors of the anti-apoptotic protein A1, read as caspase activation; AID 2462; caspase activation, % (no concentration beside the values); MEF A1-2A-BIM cells, Caspase-Glo 3/7 luminescence, 3 h; percent of clofoctol response, vehicle zero; actives 0.066% (n = 330,000);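 active = over half of replicate activation scores above 10%, or exactly half above 10 with the replicate mean above 10; inconclusive = replicate mean below 10 yet half the replicates above 10; inactive = over half of replicates below 10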;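 note: wells of about 30 µL received 50 nL stock; many hits fall short of the cut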
T cruzi repl: blocks replication of Trypanosoma cruzi; T. cruzi beta-gal in NIH3T3, luminescence, 90 h; inhibition, % (concentration not given with the values); actives 1.4% (n = 300,000);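 active = mean inhibition across valid replicates above about 55%, limit read from the data; inconclusive = mean below that limit but half or more replicates reach it; inactive = mean below it, under half of replicates reach it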;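 note: signal also drops with host cell toxicity which is not excluded here; 0% = plate median of DMSO wells and 100% = zero luminescence signal; higher percent means less beta-gal luminescence so fewer parasites; stock transfer was 50 nL into about 50 µL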
AF4-AF9 inh: inhibitors of human MLL-AF4/AF9 interaction; actives 0.47% (n = 350,000); AlphaScreen, biotin-AF4 peptide binding to FLAG-AF9; inhibition, % at 10 µM;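 active = every replicate reaching a set inhibition limit, whatever the replicate mean, cut at about 25% in these data; inconclusive = mean inhibition reaches that limit but some replicates miss it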;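 note: 0% = plate neutral control median and 100% = total signal loss; the record names both 10 and 1 µM as test concentration; the first replicate is given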
Active calls of the source: *; ? = inconclusive; . = no result given.

SMILES | RanGTP-Imp inh | Calb FLC | Beta cell apopt | LANA-H2B inh | Vif A3G | Bfl-1 A1 inh | T cruzi repl | AF4-AF9 inh
CSc1nncc(-c2ccccc2)n1 | -0.6 | -0.4 | -6.0 | 1.3 | -10.8% | 1.2 | 8.0 | -2.2
O=C1c2ccccc2C(=O)N1CC1CCCO1 (stereo not given) | 5.6 | -4.4 | -0.9 | -1.6 | -0.7% | -0.3 | -6.9 | .
Cc1ccc(NC(=O)c2ccc3ccccc3n2)cc1S(=O)(=O)N1CCOCC1 | -4.9 | 12.2 | 2.3 | -0.2 | -7.7% | -0.3 | 10.5 | -1.5
COCCCNc1nc2ccccc2nc1NS(=O)(=O)c1cccc(Cl)c1 | 9.9 | 8.0 | 7.1 | -5.0 | . | -0.8 | 6.8 | -3.0
Cc1ccc2c(c1)C(c1ccccc1)N(C(=O)c1cccc([N+](=O)[O-])c1)CC(=O)N2 (stereo not given) | 0.1 | 20.6 | 4.9 | 1.9 | . | 0.8 | 2.1 | 2.8
CCN(Cc1cccc(OC)c1)CC1CCCN(CCc2cccc(OC)c2)C1 (stereo not given) | 2.5 | -18.4 | 8.4 | 0.7 | . | 1.4 | 53.1 | 5.8
CCN(CC)C(=O)Cn1cc(S(=O)(=O)CC(=O)NCc2ccc(C)cc2)c2ccccc21 | 9.5 | 23.2 | -0.1 | -5.3 | -6.8% | 2.2 | 15.0 | -4.2
Cc1ccc(NC(=S)NC2CCCC2)c(C)c1 | -1.2 | -5.7 | . | -6.0 | 2.2% | 0.7 | -21.8 | 4.6
O=C(CCC1CCCCC1)Nc1c[nH]c(=O)[nH]c1=O | 4.6 | -7.7 | -4.0 | 1.2 | 7.3% | 0.1 | -7.4 | .
CC(=O)C1=C(O)C(=O)N(c2ccccn2)C1c1ccccc1[N+](=O)[O-] (stereo not given) | -2.7 | -14.2 | 7.2 | 1.2 | -1.5% | -0.8 | 4.6 | 1.1
Cc1oc2cc3oc(=O)c(CCC(=O)NCCCN4CCOCC4)c(C)c3cc2c1C | 2.0 | -1.0 | 7.2 | -8.8 | . | 0.4 | -12.0 | -2.5
OCCNC(=S)Nc1ccc2c(c1)OCCO2 | -1.1 | -2.9 | 0.9 | -0.9 | ? | 0.6 | -1.8 | -1.4
COc1cccc(NC(=O)C(c2ccccc2)N2CCN(c3ccccn3)CC2)c1 (stereo not given) | 2.2 | 2.6 | -4.7 | -2.3 | -2.8% | -0.3 | 12.1 | -1.1
CCN(CC)S(=O)(=O)c1ccc(Cl)c(NC(=O)COC(=O)c2ccc([N+](=O)[O-])o2)c1 | 0.3 | 3.1 | -7.6 | 0.7 | 13.1% | 0.4 | -3.9 | 7.5
CC1CCCCN1CCCNC(=O)c1ccc2c(=O)n(CCc3ccccc3)c(=O)[nH]c2c1 (stereo not given) | -0.1 | 12.0 | -0.4 | -0.3 | -2.0% | 0.5 | -12.0 | .
O=C(COc1ccc(Cl)cc1)NNC(=O)c1ccccc1C(=O)O | -1.5 | -51.1 | -0.7 | -8.8 | . | -0.3 | -12.1 | -0.3
CCOc1ccc2nc(NC(=O)C3=NNC(=O)CC3)sc2c1 | -3.6 | 18.4 | 7.1 | 1.6 | . | -2.2 | -13.3 | 2.7
N#C/C(=C/c1cccs1)c1nc2ccccc2[nH]1 | 3.5 | 4.4 | 5.5 | 10.7 | -12.8% | -7.4 | 14.1 | .
Nc1nc(-c2ccco2)nn1C(=O)c1ccccc1 | 1.6 | 0.7 | -7.6 | -8.2 | 1.7% | 0.2 | -7.6 | .
CCOC(=O)c1c(NC(=O)COC(=O)c2ccc(C)s2)sc2c1CC(C)(C)NC2(C)C | 2.0 | 12.7 | -10.4 | 1.0 | -0.7% | -0.2 | 9.1 | 2.1
CCNC(=S)Nc1cc(OCC)c(N2CCOCC2)cc1OCC | 1.8 | -15.4 | . | 2.2 | 13.1% | 1.5 | 12.1 | -0.1
N#CC1=C(N)Oc2cc3c(cc2C1c1ccc(Cl)cc1)OCO3 (stereo not given) | 28.7* | 41.3 | 1.6 | 0.7 | 3.2% | 0.2 | 0.4 | 1.1
CN(C)S(=O)(=O)c1cccc(C(=O)N=C2N=C3C=CC(Cl)=CN3Cc3ccccc32)c1 | 1.4 | -21.2 | 5.4 | -0.3 | ? | -6.5 | -16.5 | 1.6
CCCCN(CCCC)CCCNC(=O)Cn1cc2c(n1)-c1c(oc(C(=O)N3CCCC3)c1C)CC2 | -6.1 | -24.3 | -1.0 | 10.9 | . | 1.7 | 18.3 | -5.4
Cc1ccc(S(=O)(=O)N2[C@@H](c3ccc(F)cc3)C(C(=O)O)=CC[C@H]2c2ccc(Cl)cc2)cc1 | . | . | 9.2 | -0.4 | . | 1.4 | . | -4.0
O=C(CCN1C(=O)/C(=C/c2cccc(Br)c2)SC1=S)Nc1cccnc1 | 1.2 | -19.3 | 3.1 | 2.9 | 3.1% | -0.5 | 10.2 | -1.7
COc1cccc(CC(NC(C)=O)C(=O)NC2CCN(c3c(Cc4ccccc4)c(C)nc4ncnn34)CC2)c1OC (stereo not given) | -2.4 | 4.1 | -2.9 | -4.8 | . | -1.0 | -5.8 | .
Cc1cc(C)cc(NC(=O)Cn2c(=O)oc3cc(S(=O)(=O)N4CCC(C)CC4)ccc32)c1 | 6.6 | -15.0 | 22.3 | -0.8 | -3.8% | 0.4 | -7.2 | 3.7
COc1cc(/C=N/NC(=O)c2ccncc2)ccc1OC(=O)c1ccc([N+](=O)[O-])cc1 | -3.7 | 12.0 | -0.8 | 2.4 | 6.7% | -0.8 | -7.9 | .
c1ccc(CSc2nnc(-c3ccco3)c(-c3ccco3)n2)cc1 | ? | -20.3 | . | -5.3 | 6.93µM* | 0.0 | -3.9 | .
CCCN1CCC(=O)N(CCSc2ccc(OC)cc2)CC1 | 2.0 | -13.1 | -5.1 | -1.2 | . | 2.2 | -8.7 | 1.0
COc1ccc(NS(=O)(=O)c2ccc(-c3ccccn3)s2)cc1 | -1.3 | 4.2 | 0.5 | -7.6 | . | 0.3 | -9.5 | -3.6
O=C(COc1ccc(S(=O)(=O)N2CCOCC2)cc1Cl)NCc1ccco1 | 3.2 | -2.5 | 2.6 | 1.0 | . | 0.0 | 7.5 | -2.6
O=C(Cc1ccc(F)cc1)Nc1ccccc1N1CCCC1 | 4.7 | 42.3 | -1.9 | 3.3 | 3.6% | 1.1 | 13.9 | 2.8
COc1ccc(S(=O)(=O)C(C#N)c2nc3ccccc3nc2N2CCC(C)CC2)cc1 (stereo not given) | 27.0* | -2.1 | 7.6 | -11.0 | . | -0.3 | 8.1 | .
COc1ccc(CN2CCCCCC2)c(C)c1C | -1.8 | 10.3 | -5.3 | 1.1 | -3.7% | 0.6 | 42.2 | .
CCCCOc1ccc(S(=O)(=O)N2CCCCC2)cc1 | 1.9 | -6.3 | -4.9 | 9.5 | . | 0.8 | 24.7 | -1.4
CSc1ccccc1NC(=O)CN(C)CC(=O)NCC(=O)Nc1ccc(F)cc1 | 6.2 | 7.4 | -5.1 | -1.4 | 9.8% | 0.5 | -2.6 | 8.3
Cc1cc(/C=N/NC(=O)c2cccc([N+](=O)[O-])c2)c(C)n1-c1ccccc1 | 0.0 | ? | 3.3 | -1.6 | ? | -1.0 | 6.1 | 9.2
CC(OC(=O)CNC(=O)c1sc2ccccc2c1Cl)C(=O)NC1(C#N)CCCCC1 (stereo not given) | . | . | -1.6 | -9.6 | -14.0% | -0.8 | . | -1.0
COc1cc([N+](=O)[O-])ccc1NC(=O)c1cccc(NC(=O)C(C)C)c1 | 3.3 | 18.4 | 7.1 | 0.8 | -0.8% | 1.2 | 0.6 | .
CCOC(=O)c1ccc(NC(=S)NNC(=O)COC)cc1 | 1.9 | -0.4 | -9.8 | 3.5 | -3.8% | -0.6 | -11.7 | .
CN(C)/C=C1\NC(=S)N(c2ccccc2)C1=O | -2.3 | -18.2 | -1.6 | -0.4 | -8.5% | 0.1 | -9.9 | -4.5
CCc1cc(=O)oc2cc(C)cc(OC(C)C(=O)NC3CC(C)(C)NC(C)(C)C3)c12 (stereo not given) | -2.5 | -11.2 | -2.9 | 4.5 | . | -0.2 | -13.2 | 0.4
FC(F)(F)c1nc(-c2ccncc2)ncc1-c1nnnn1-c1ccccc1 | -4.7 | 16.3 | 5.0 | 0.4 | -5.6% | 0.0 | -0.2 | .
O=C(CSc1nnc(-c2cc3ccccc3cc2O)n1Cc1ccco1)N1CCc2ccccc2C1 | 4.4 | 2.7 | 1.2 | 1.4 | 19.7% | -0.3 | 1.9 | .
Cc1ccc(NC(=O)c2ccccc2OCC(=O)c2ccccc2)cc1 | 0.2 | 18.3 | 4.6 | 3.5 | 3.8% | 0.0 | 21.2 | .
CCC1(c2ccccc2)ON(c2c(Br)cccc2Br)C1=O (stereo not given) | . | . | -7.6 | 6.6 | . | 1.5 | . | -25.4
COC(=O)CSc1nnc(-c2cccnc2)o1 | -3.9 | -20.1 | 0.1 | 2.5 | 1.2% | -0.9 | -7.1 | .
CN1CCN(c2nc(-c3ccccc3)nc(-c3ccccc3)c2C#N)CC1 | -5.2 | -4.3 | -3.4 | 11.6 | -10.6% | 0.5 | 41.0 | 6.1
CCS(=O)(=O)NCC(c1cccnc1)N1CCN(c2ccccc2OC)CC1 (stereo not given) | 1.2 | -3.5 | -1.2 | -2.1 | 16.1% | 0.1 | 28.9 | -3.7
O=C(O)CCN1c2cccc3cccc(c23)S1(=O)=O | -0.7 | -6.1 | -7.5 | -3.6 | . | -0.3 | -13.4 | -5.1
COc1ccc(C2=NOC(C(=O)NCCCn3ccnc3)C2)cc1 (stereo not given) | 3.1 | -8.5 | . | -1.8 | 14.8% | 0.2 | -4.0 | .
COc1cc(CNc2ccc(C(=O)O)cc2)cc(Br)c1OCC(=O)NC(C)(C)C | -1.6 | -22.4 | 0.7 | 0.8 | . | 0.2 | -10.6 | .
CCOC(=O)C1(CC2CCCCO2)CCN(Cc2nc3ccccc3[nH]2)CC1 (stereo not given) | 7.8 | -9.4 | 0.8 | -2.8 | -3.0% | 0.0 | -6.7 | -0.4
COc1ccc(C(=O)NCc2ccc(N3CCN(C)CC3)cc2)cc1 | -0.7 | -2.2 | . | 1.5 | . | -0.5 | 0.7 | -1.1
CCC(=O)N1CCN(c2c(Cl)cccc2[N+](=O)[O-])CC1 | 2.4 | 2.2 | -0.8 | -1.6 | -2.4% | 0.7 | -10.8 | .
CCc1ccc(NC(=O)Nc2ccsc2C(=O)OC)cc1 | 3.0 | -3.4 | 4.2 | -5.2 | . | 0.0 | 0.8 | -2.0
CC(C)CC(NC(=O)C1CCC(C)CC1)C(=O)Nc1ccccc1F (stereo not given) | -5.1 | -20.2 | -1.7 | 7.6 | . | 0.1 | 3.4 | 1.0

Entries above that bear a hit mark in Vif A3G:
| molecule | RanGTP-Imp inh | LANA-H2B inh | Vif A3G | AF4-AF9 inh |
| --- | --- | --- | --- | --- |
| c1ccc(CSc2nnc(-c3ccco3)c(-c3ccco3)n2)cc1 | ? | -5.3 | 6.93µM* | . |
